Screening data (PubChem)
HIV Env fusion = inhibitors of HIV-1 Env-driven cell-cell fusion, primary screen, HeLa-JRFL effector, CEM21 target cells, luciferase; inhibition, % at 12.3 µM; hit rate 1.1% among 360,000;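 active = mean replicate inhibition score of at least 50 and every replicate individually at or above 50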;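 also: 0% = plate neutral controls and 100% = maraviroc near 300 nM; one replicate is shown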
Rce1 inhib = yeast Rce1p protease inhibitors, primary screen, biochemical, fluorescence, cell-free homogeneous; calls only; hit rate 0.27% among 290,000; yeast membranes, quenched prenylated peptide cleavage fluorescence; AID 2563, 2010; CAAX prenyl protease 2 (Saccharomyces cerevisiae (strain ATCC 204508 / S288c)), Q03530;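 active = fall in fluorescence gain of 50% or more versus controls, with final raw signal at or below 3038400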;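 also: plate controls were neutral control wells for no effect and wells lacking membranes for full effect; tested at 10 µM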
Target sequence (Q03530 whole entry, looked up): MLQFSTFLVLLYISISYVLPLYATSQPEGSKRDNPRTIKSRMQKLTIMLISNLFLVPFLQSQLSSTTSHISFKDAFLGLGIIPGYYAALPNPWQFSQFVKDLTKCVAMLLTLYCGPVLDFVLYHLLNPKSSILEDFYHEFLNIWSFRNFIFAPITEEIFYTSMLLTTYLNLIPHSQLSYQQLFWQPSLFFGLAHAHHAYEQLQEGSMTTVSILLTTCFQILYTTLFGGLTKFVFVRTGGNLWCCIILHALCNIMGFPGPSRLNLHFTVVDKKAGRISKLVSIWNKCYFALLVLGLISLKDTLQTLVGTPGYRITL
Yeast UUG start = modulators of yeast start codon fidelity, primary screen, whole organism, S. cerevisiae, single point, plate reader; S. cerevisiae UUG-firefly luciferase reporter, luminescence/redox ratio; activity score, % at 18.7 µM; hit rate 0.13% among 350,000;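 active = replicate mean at a twofold rise or more, about +100% in these data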;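 also: firefly luciferase made from a UUG start codon reports start codon fidelity; reporter light over untreated wells divided by growth signal over untreated wells; some hits fall short of that in this replicate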
eIF4H FP inh = human eIF4H binding inhibitors, primary screen, translation initiation inhibitor project, biochemical, uHTS, fluorescence polarization | Eukaryotic translation initiation factor 4H (Homo sapiens), Q15056 | eIF4H fluorescence polarization binding assay | inhibition, % at 35 µM | hit rate 0.94% among 290,000;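 active = 50% or more with normal probe brightness, or confirmed in later tests; about a fifth of its hits are not listed in these tables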;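 also: calls also rest on retests at 20 µM and on dose response follow-up; 0% = protein and probe with vehicle and 100% = probe without protein; strong numbers were not always called active; many hits fall short of the cut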
PABP polyA inh = PABP poly(A) RNA binding inhibitors, primary screen, biochemical, fluorescence polarization, uHTS; hit rate 1% among 290,000; Polyadenylate-binding protein 1 (Homo sapiens), P11940; inhibition, % at 35 µM;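 active = 50% or more with normal probe brightness, or confirmed in later tests; about a fifth of its hits are not listed in these tables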;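 also: calls also rest on retests at 20 µM and on dose response follow-up; controls were probe without protein and protein plus probe with vehicle; some compounds called inactive have numbers as strong as hits; many hits fall short of the cut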
Target sequence (P11940 whole entry, looked up): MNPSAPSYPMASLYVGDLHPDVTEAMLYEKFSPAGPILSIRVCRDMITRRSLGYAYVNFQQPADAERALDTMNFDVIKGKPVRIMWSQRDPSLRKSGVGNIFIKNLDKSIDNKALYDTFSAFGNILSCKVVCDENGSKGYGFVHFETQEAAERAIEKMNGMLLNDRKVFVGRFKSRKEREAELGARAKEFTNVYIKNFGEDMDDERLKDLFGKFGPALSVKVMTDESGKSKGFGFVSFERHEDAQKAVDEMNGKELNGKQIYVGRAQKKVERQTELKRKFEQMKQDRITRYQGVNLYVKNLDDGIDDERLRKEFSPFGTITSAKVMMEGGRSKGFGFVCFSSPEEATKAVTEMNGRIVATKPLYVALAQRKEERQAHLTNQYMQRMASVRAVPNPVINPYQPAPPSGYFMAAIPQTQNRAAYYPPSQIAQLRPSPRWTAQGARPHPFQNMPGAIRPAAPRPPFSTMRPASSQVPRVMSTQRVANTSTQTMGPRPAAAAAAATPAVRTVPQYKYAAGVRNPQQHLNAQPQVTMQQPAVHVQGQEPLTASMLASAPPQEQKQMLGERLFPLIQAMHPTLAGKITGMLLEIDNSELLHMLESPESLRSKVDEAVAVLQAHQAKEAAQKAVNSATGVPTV
MT1-MMP act inh = blockers of MT1-MMP proenzyme processing, primary screen, HT1080 RFP-PRO-GFP cells, GFP/RFP fluorescence; hit rate 0.061% among 360,000; Matrix metalloproteinase-14 (Homo sapiens), P50281; GFP/RFP ratio change, % at 20 µM; GFP/RFP ratio fluorescence, overnight; percent of plate control window, DMSO zero;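 active = GFP/RFP ratio change of at least 30% with cell ATP level not reduced by more than half and red fluorescence within 50% of control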; also: strong numbers were not always called active
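Assay system: RFP-PRO-GFP reporter HT1080 cells; read-out basis: GFP/RFP fluorescence ratio; benchmarks: DMSO wells and RFP-L50D-GFP cells; doses: 20 µM single dose, 1% DMSO; schedule: overnight cell settling, then overnight compound exposure, 37 °C, 5% CO2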
CSC inhib = cancer stem cell viability inhibitors, primary screen, luminescence. hit rate 1.1% among 300,000. inhibition, % at 7.5 µM. cancer stem cell-like cells viability;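 active = mean at 75% or more and at least half the replicates too; tested in HMLE shEcad cells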;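 also: 0% = median of negative and 100% = median of positive control wells; the first replicate is given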
MT1-MMP act inh RFP = also measured in MT1-MMP act inh; calls as there; RFP signal change, %; measured here: RFP expression control read;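 0 = vehicle wells; hits needed this value within 50% of zero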
Numbers without * were called inactive; i = inactive; nt = not tested or not shown; + = active, no number.

1	Cc1ccc(S(=O)(=O)N(Cc2ccccc2)c2ccccc2C(=O)Nc2ccccc2C(=O)NCc2ccco2)cc1
2	Cc1ccc(C(=O)NC2CCc3ccccc3C2=O)cc1 (stereo not given)
3	C=CCN(C(=O)CNC(=O)c1ccco1)C(C(=O)NC1CCCC1)c1ccc(OC)cc1 (stereo not given)
4	Cc1nn(C)c(Cl)c1CN1CCC(CO)(CCOc2ccccc2)CC1
5	O=c1[nH]c(N2CCc3ccccc3C2)nc2c1CCC2
6	O=C(NCCN1CCOCC1)/C(=C/c1ccco1)NC(=O)c1ccccc1
7	COc1cc(C(=O)NC(C)c2cccc3ccccc23)cc(OC)c1OC (stereo not given)
8	COc1cc2c(cc1OC)CN(C(=O)Nc1ccccc1Cl)CC2
9	CN1CCN(c2ccccc2NC(=S)NC(=O)c2cc3ccccc3o2)CC1
10	Cc1n[nH]c(C)c1S(=O)(=O)N1CCC(C(=O)N2CCn3c2nc2ccccc23)CC1

Assay by compound,1,2,3,4,5,6,7,8,9,10
HIV Env fusion,-32,-51,-6,6,-94,nt,-12,3,3,nt
Rce1 inhib,i,i,i,i,i,i,i,nt,i,i
Yeast UUG start,nt,-4,-7,-2,-21,-18,-3,-10,-17,1
eIF4H FP inh,4,7,0,4,-9,-7,-4,0,-5,13
PABP polyA inh,7,-2,18,9,0,-13,1,-5,8,4
MT1-MMP act inh,-5,-1,-1,0,2,-2,3,1,3,3
MT1-MMP act inh RFP,-10,3,-1,-6,-1,0,-6,-2,3,4
CSC inhib,69,-11,29,-11,-17,-7,-16,0,1,1

11	O=C(/C(=N\Nc1ccc(Br)cc1)Sc1nnnn1-c1ccccc1)c1ccccc1
12	Cc1ccc2occ(-c3nn[nH]n3)c(=O)c2c1
13	N#Cc1nc(Cc2cccc3ccccc23)oc1N1CCCCC1
14	O=C(O)Cc1nc2nc3c(c(=O)n2[nH]1)CCCC3
15	COc1ccc(C(=O)C2CCCN(S(=O)(=O)C(C)C)C2)c(C)c1 (stereo not given)
16	COC(=O)c1[nH]c2ccc(Cl)cc2c1NC(=O)Oc1ccccc1
17	COc1ccc(C(=O)NC2CC(C)(C)Cc3c2cnn3-c2ccccc2)cc1OC (stereo not given)
18	CCC(C)[C@H](NC(=O)N1CC(=O)Nc2ccccc21)C(=O)N1CCC[C@H]1C(=O)O (stereo not given in full)
19	Cc1nn(C)cc1C(C)NC(=O)c1cc(COc2cccc3cnccc23)on1 (stereo not given)
20	O=C(O)c1ccc2c(c1)-c1cc(C(=O)O)ccc1S2(=O)=O

Assay by compound,11,12,13,14,15,16,17,18,19,20
HIV Env fusion,-1,-3,nt,-1,-3,-237,5,nt,18,-2
Rce1 inhib,i,i,i,i,i,i,i,i,nt,i
Yeast UUG start,-14,-8,-14,-14,nt,-20,10,-13,-17,1
eIF4H FP inh,-14,2,2,-9,-2,5,-3,-12,-1,nt
PABP polyA inh,11,17,-10,10,1,6,-10,4,0,nt
MT1-MMP act inh,5,2,-2,-4,2,-1,3,-3,-4,2
MT1-MMP act inh RFP,-12,1,-8,-9,2,6,-11,-3,-26,4
CSC inhib,26,-3,10,-3,-10,4,11,-7,13,-8

Of the compounds above, these contain a COOH group.
14	O=C(O)Cc1nc2nc3c(c(=O)n2[nH]1)CCCC3
18	CCC(C)[C@H](NC(=O)N1CC(=O)Nc2ccccc21)C(=O)N1CCC[C@H]1C(=O)O (stereo not given in full)
20	O=C(O)c1ccc2c(c1)-c1cc(C(=O)O)ccc1S2(=O)=O

Assay by compound,14,18,20
HIV Env fusion,-1,nt,-2
Rce1 inhib,i,i,i
Yeast UUG start,-14,-13,1
eIF4H FP inh,-9,-12,nt
PABP polyA inh,10,4,nt
MT1-MMP act inh,-4,-3,2
MT1-MMP act inh RFP,-9,-3,4
CSC inhib,-3,-7,-8

Other records
21	COc1ccc(N(CC(=O)NC2CCCC2)C(=O)Cn2nnc(-c3ccc(F)cc3)n2)cc1OC
22	COc1ccc(S(=O)(=O)Cc2ccc(C(=O)NC3CCCC3)o2)cc1
23	CCOc1ccc(CCNC(=O)CCCN2C(=O)c3ccccc3C2=O)cc1OCC
24	O=C(O)C1CSCN1S(=O)(=O)c1cccc2nsnc12 (stereo not given)
25	CC(C)(C)CC(C)(C)NC(=O)c1ccc2snnc2c1
26	CNC(=S)N(CCc1cccc(C)c1)Cc1cc2cc(OC)c(OC)cc2[nH]c1=O
27	COc1ccccc1NC(=O)C(C)OC(=O)C1CCC(C(C)(C)C)CC1 (stereo not given)
28	C=CCn1c(CCCNC(=O)C(C)(C)C)nc2ccccc21
29	O=C(c1ccccc1)N1CCN(Cc2c[nH]c3ccccc23)CC1
30	Cc1ccc(C)c(C(=O)CCC(=O)N2CCN(c3ncccn3)CC2)c1

Assay by compound,21,22,23,24,25,26,27,28,29,30
HIV Env fusion,nt,23,-24,-2,10,-2,nt,nt,-23,2
Rce1 inhib,i,i,i,i,i,i,i,i,i,i
Yeast UUG start,nt,2,-11,-17,5,nt,nt,-2,-2,-4
eIF4H FP inh,-11,-4,-1,6,-1,2,nt,6,-7,4
PABP polyA inh,4,4,5,3,-5,8,nt,4,-4,-3
MT1-MMP act inh,-2,2,2,4,1,1,1,-5,-3,1
MT1-MMP act inh RFP,1,3,6,3,0,0,-3,3,-1,-3
CSC inhib,16,0,9,-6,-27,18,21,-13,-4,-12

31	S=c1[nH]nc(-c2cccnc2)o1
32	Cc1ccc(S(=O)(=O)Nc2ccc(NC(=O)c3cccs3)cc2)cc1
33	COCCNC(=O)C1CCC(Cn2c(=S)[nH]c3ccccc3c2=O)CC1 (stereo not given)
34	CC(=O)c1cccc(NC(=O)N2CCCC2C(=O)Nc2c(C)cccc2C)c1 (stereo not given)
35	OC(CNCCC1C=Nc2ccccc21)Cn1c2ccc(Cl)cc2c2cc(Cl)ccc21 (stereo not given)
36	O=C(OCC(=O)N1CCN(c2ccccc2)CC1)c1ccccn1
37	CC(=O)Nc1ccc(C(=O)COC(=O)c2ccco2)c(F)c1
38	O=C(O)/C=C/C(=O)NCC1CCC(CNC(=O)/C=C/C(=O)O)CC1 (stereo not given)
39	O=C(O)Cn1cnc2scc(-c3ccccc3)c2c1=O
40	Cc1occc1C(=O)Nc1ccc2c(c1)OCO2

Assay by compound,31,32,33,34,35,36,37,38,39,40
HIV Env fusion,4,9,-39,nt,3,3,nt,-14,-2,nt
Rce1 inhib,i,i,i,i,+,nt,nt,i,i,i
Yeast UUG start,-14,nt,-20,-11,-9,-3,-31,-12,-18,-27
eIF4H FP inh,-12,-6,-12,1,-5,-9,nt,2,-11,1
PABP polyA inh,1,-2,5,3,-8,-7,nt,4,-1,7
MT1-MMP act inh,7,1,6,-4,-17,-3,-1,-2,-1,1
MT1-MMP act inh RFP,7,-4,-1,-3,-21,-2,3,1,3,-9
CSC inhib,-4,0,-13,-14,106*,1,-1,2,-8,12

Ordered by number of heavy atoms (lowest first): 6 of the compounds above
31	S=c1[nH]nc(-c2cccnc2)o1
14	O=C(O)Cc1nc2nc3c(c(=O)n2[nH]1)CCCC3
25	CC(C)(C)CC(C)(C)NC(=O)c1ccc2snnc2c1
37	CC(=O)Nc1ccc(C(=O)COC(=O)c2ccco2)c(F)c1
11	O=C(/C(=N\Nc1ccc(Br)cc1)Sc1nnnn1-c1ccccc1)c1ccccc1
21	COc1ccc(N(CC(=O)NC2CCCC2)C(=O)Cn2nnc(-c3ccc(F)cc3)n2)cc1OC

Assay by compound,31,14,25,37,11,21
HIV Env fusion,4,-1,10,nt,-1,nt
Rce1 inhib,i,i,i,nt,i,i
Yeast UUG start,-14,-14,5,-31,-14,nt
eIF4H FP inh,-12,-9,-1,nt,-14,-11
PABP polyA inh,1,10,-5,nt,11,4
MT1-MMP act inh,7,-4,1,-1,5,-2
MT1-MMP act inh RFP,7,-9,0,3,-12,1
CSC inhib,-4,-3,-27,-1,26,16

Later entries:
41	O=[N+]([O-])c1nn(-c2ccccc2)[n+]([O-])c1N1CCN(c2ccccc2)CC1
42	COc1ccc(NC(=O)CCCC(=O)O)cc1Cl
43	Cc1cc(C)nc(Nc2ncc(O)n2-c2ccc(C)c(Cl)c2)n1
44	Cc1cccc(-n2c(C)nc3cc(C(=O)NCc4ccc5c(c4)OCO5)ccc32)c1
45	Cc1ccccc1NS(=O)(=O)c1ccc(OCC(=O)NCC2CCCO2)cc1 (stereo not given)
46	COc1ccc(C(=O)c2ccccc2)cc1CN1CCOCC1
47	COc1ccc(CCN2C(=O)C3C4CC(C5C(C(=O)NN)=NOC45)C3C2=O)cc1OC (stereo not given)
48	CCOc1ccc(NC(=O)CSc2nnc(N)s2)c([N+](=O)[O-])c1
49	Cc1ncc([N+](=O)[O-])n1Cc1ccc(Cl)cc1
50	CC(C)N1C(=O)N(c2cccc(Cl)c2)C(C)(O)CC1(C)C (stereo not given)

Assay by compound,41,42,43,44,45,46,47,48,49,50
HIV Env fusion,5,-2,-7,8,8,15,nt,-16,4,7
Rce1 inhib,i,i,i,i,i,nt,i,i,i,i
Yeast UUG start,-4,nt,-22,nt,-6,-13,-16,-17,nt,-23
eIF4H FP inh,6,-1,-4,1,-10,nt,-3,0,2,-10
PABP polyA inh,48,-5,-3,1,0,nt,9,-7,3,8
MT1-MMP act inh,-3,-1,-2,-1,1,0,1,6,2,-7
MT1-MMP act inh RFP,5,4,-2,4,1,1,0,-2,2,0
CSC inhib,-26,-18,-8,6,9,nt,-11,-6,-5,-13

(list continues)
Screens by letter: A = HIV Env fusion; B = Rce1 inhib; C = Yeast UUG start; D = eIF4H FP inh; E = PABP polyA inh; F = MT1-MMP act inh; G = MT1-MMP act inh RFP; H = CSC inhib
51	Cc1oc(C(=O)Nc2ccc(C(=O)O)cc2)cc1COc1ccccc1
  A: -85; B: i; C: -37; D: 7; E: 25; F: 6; G: 4; H: -19
52	N#Cc1ccc(Oc2ccc(S(=O)(=O)N3CCCCC3)cn2)cc1
  A: nt; B: i; C: -17; D: nt; E: nt; F: 2; G: 1; H: -11
53	CN1CCN(C(=O)CCN2C(=O)/C(=C/c3ccccc3Cl)SC2=S)CC1
  A: 3; B: i; C: -18; D: 14; E: 5; F: 2; G: -5; H: -4
54	Cn1cccc1-c1cc(C(=O)N/N=C/c2ccc([N+](=O)[O-])cc2)[nH]n1
  A: -4; B: i; C: -20; D: -22; E: -1; F: 1; G: 0; H: 9
55	CCC(=O)N/N=C(\C)CC(=O)Nc1ccc(F)cc1
  A: 0; B: i; C: nt; D: -2; E: -6; F: 0; G: 4; H: 8
56	Cc1cccnc1NC(=S)Nc1ccc(F)cc1F
  A: -19; B: i; C: nt; D: -6; E: -1; F: -5; G: 0; H: -4
57	CCSc1c([N+](=O)[O-])c(=O)n(-c2ccccc2)c2ccccc12
  A: 19; B: i; C: -7; D: nt; E: nt; F: 1; G: 1; H: 10
58	Cc1ccc(C(=O)N(CC(=O)NC2CCCC2)c2ccccc2F)s1
  A: 9; B: nt; C: -13; D: nt; E: nt; F: 2; G: 3; H: nt
59	O=C(c1ccco1)N1CCN(Cc2ccc(Br)cc2)CC1
  A: 28; B: i; C: 23; D: -10; E: 9; F: -1; G: -5; H: -9
60	O=C(Nc1cc2c3c(c1)CC(=O)N3CCC2)c1ccccc1Br
  A: 10; B: i; C: -24; D: nt; E: nt; F: 1; G: 2; H: -11
61	Cc1ccsc1C(=O)OC(C)C(=O)Nc1ccc(Cl)cn1 (stereo not given)
  A: 1; B: nt; C: 0; D: nt; E: nt; F: -1; G: -5; H: -9

Only part of the results is shown. The share of hits here may be higher or lower than overall.
